# From PubChem BioAssay
# eIF4H FP inh – human eIF4H binding inhibitors, primary screen, translation initiation inhibitor project, biochemical, uHTS, fluorescence polarization; eIF4H fluorescence polarization binding assay; 290,000 tested, 0.94% active; inhibition, % at 35 µM; Eukaryotic translation initiation factor 4H (Homo sapiens), Q15056; AID 2012, 2009;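 active = 50% or more with normal probe brightness, or confirmed in later tests; inconclusive = above 50% with abnormal brightness, or retests that disagree; inactive = below 50% or failed in later tests; about a fifth of its hits are not listed in these tables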;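 also: calls also rest on retests at 20 µM and on dose response follow-up; 0% = protein and probe with vehicle and 100% = probe without protein; strong numbers were not always called active; many hits fall short of the cut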
# CSC inhib – cancer stem cell viability inhibitors, primary screen, luminescence; 300,000 tested, 1.1% active; cancer stem cell-like cells viability; inhibition, % at 7.5 µM; AID 2717, 2010;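 active = mean at 75% or more and at least half the replicates too; inconclusive = mean and replicates disagree; tested in HMLE shEcad cells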;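 also: 0% = median of negative and 100% = median of positive control wells; the first replicate is given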
# Rce1 inhib – yeast Rce1p protease inhibitors, primary screen, biochemical, fluorescence, cell-free homogeneous; calls only; 290,000 tested, 0.27% active; yeast membranes, quenched prenylated peptide cleavage fluorescence; AID 2563, 2010;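 active = fall in fluorescence gain of 50% or more versus controls, with final raw signal at or below 3038400; inconclusive = same 50% fall but final raw signal above 3038400; inactive = fall in fluorescence gain under 50%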;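 also: plate controls were neutral control wells for no effect and wells lacking membranes for full effect; tested at 10 µM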
# Yeast UUG start – modulators of yeast start codon fidelity, primary screen, whole organism, S. cerevisiae, single point, plate reader; S. cerevisiae UUG-firefly luciferase reporter, luminescence/redox ratio; activity score, % at 18.7 µM; 350,000 tested, 0.13% active; AID 602363, 2012;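 active = replicate mean at a twofold rise or more, about +100% in these data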;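 also: firefly luciferase made from a UUG start codon reports start codon fidelity; reporter light over untreated wells divided by growth signal over untreated wells; some hits fall short of that in this replicate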
# HIV Env fusion – inhibitors of HIV-1 Env-driven cell-cell fusion, primary screen, HeLa-JRFL effector, CEM21 target cells, luciferase; 360,000 tested, 1.1% active; AID 651610, 2012; inhibition, % at 12.3 µM;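 active = mean replicate inhibition score of at least 50 and every replicate individually at or above 50; inconclusive = only one of the two criteria met; inactive = mean below 50 and not all replicates reaching 50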;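 also: 0% = plate neutral controls and 100% = maraviroc near 300 nM; one replicate is shown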
# MT1-MMP act inh – blockers of MT1-MMP proenzyme processing, primary screen, HT1080 RFP-PRO-GFP cells, GFP/RFP fluorescence; 360,000 tested, 0.061% active; GFP/RFP ratio change, % at 20 µM; GFP/RFP ratio fluorescence, overnight; percent of plate control window, DMSO zero;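 active = GFP/RFP ratio change of at least 30% with cell ATP level not reduced by more than half and red fluorescence within 50% of control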; also: strong numbers were not always called active
#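 Assay system: HT1080 cells carrying an RFP-PRO-GFP reporter | Dosing: Single dose of 20 µM compound, 1% DMSO final | Incubation: Cells overnight before dosing, compound overnight, 37 °C, 5% CO2 | Evaluation: GFP/RFP fluorescence ratio | Control set: DMSO and RFP-L50D-GFP cell wells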
# PABP polyA inh – PABP poly(A) RNA binding inhibitors, primary screen, biochemical, fluorescence polarization, uHTS | Polyadenylate-binding protein 1 (Homo sapiens), P11940 | inhibition, % at 35 µM | 290,000 tested, 1% active;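 active = 50% or more with normal probe brightness, or confirmed in later tests; inconclusive = above 50% with abnormal brightness, or retests that disagree; inactive = below 50% or failed in later tests; about a fifth of its hits are not listed in these tables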;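 also: calls also rest on retests at 20 µM and on dose response follow-up; controls were probe without protein and protein plus probe with vehicle; some compounds called inactive have numbers as strong as hits; many hits fall short of the cut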
# Target sequence (P11940 whole entry, looked up): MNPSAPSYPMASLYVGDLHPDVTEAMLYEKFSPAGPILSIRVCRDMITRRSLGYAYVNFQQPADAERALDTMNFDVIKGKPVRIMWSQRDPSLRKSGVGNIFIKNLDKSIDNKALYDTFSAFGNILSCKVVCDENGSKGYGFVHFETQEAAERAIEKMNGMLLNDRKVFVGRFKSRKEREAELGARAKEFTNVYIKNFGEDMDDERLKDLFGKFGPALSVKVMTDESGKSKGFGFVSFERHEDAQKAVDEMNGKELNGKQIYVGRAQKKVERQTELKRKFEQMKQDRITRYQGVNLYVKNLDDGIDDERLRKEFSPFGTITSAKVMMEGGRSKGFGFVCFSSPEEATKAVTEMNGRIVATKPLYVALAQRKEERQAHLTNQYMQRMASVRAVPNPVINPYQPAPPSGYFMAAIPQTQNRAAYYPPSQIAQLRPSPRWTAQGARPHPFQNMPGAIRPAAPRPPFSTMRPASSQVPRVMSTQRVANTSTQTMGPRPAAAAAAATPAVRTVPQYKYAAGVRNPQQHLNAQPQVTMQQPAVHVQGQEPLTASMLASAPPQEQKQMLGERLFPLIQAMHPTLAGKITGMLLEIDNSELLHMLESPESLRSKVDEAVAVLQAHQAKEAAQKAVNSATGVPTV
# MT1-MMP act inh RFP – further read-out of MT1-MMP act inh, marked with its call; RFP signal change, %; measured here: RFP expression control read;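 0 = vehicle wells; hits needed this value within 50% of zero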
# * hit, by the source's call; i = inactive; ? = inconclusive; . = no result given. The list is partial; the hit share may differ from the screen's.
SMILES,eIF4H FP inh,CSC inhib,Rce1 inhib,Yeast UUG start,HIV Env fusion,MT1-MMP act inh,MT1-MMP act inh RFP,PABP polyA inh
CC(C)(C)c1ccc(NC(=O)Cn2cnc3cc([N+](=O)[O-])ccc3c2=O)cc1,0,-11,i,.,6,2,-4,-7
CCN(CC)S(=O)(=O)c1cccc(NC(=O)CSc2nc3ccccc3[nH]2)c1,5,10,i,.,47,-1,-8,1
Cc1ccc(-c2c(C(=O)O)c(C(=O)O)c3n2CCC3)cc1,-6,-7,i,.,14,1,3,8
COc1ccccc1OC(C)c1nnc(SCC(=O)Nc2c(C)n(C)n(-c3ccccc3)c2=O)n1-c1ccccc1 (stereo not given),-8,-19,i,.,.,5,0,-9
CNC(=O)CS(=O)(=O)CC(=O)Nc1cc(OC(C)C)c(Cl)cc1Cl,0,.,.,.,22,2,2,-5
CC(C)(C)OC(=O)N1CCC(c2c(C(=O)N3CCN(C4CCCCC4)CC3)cnn2-c2ccc(F)cc2)CC1,30,2,i,-6,-6,-2,1,13
COC(=O)c1ccc(NC(=O)c2cnc3scc(C)n3c2=O)cc1,-6,-19,i,.,.,.,.,1
CN1CCN(S(=O)(=O)c2cc(Cl)c(Cl)cc2Cl)CC1,0,-7,i,-16,-10,-2,2,8
CS(=O)(=O)N(CC(=O)N1CCOCC1)Cc1ccc(Cl)cc1,-4,-18,i,-15,.,2,1,0
CCOC(=O)N1CCN(C(=S)NC2CCCC2)CC1,0,-4,i,.,-14,0,2,-5
O=C(NNCc1ccccc1)c1ccccn1,.,.,.,-24,-42,0,-3,.
CCc1nc(N2CCN(C(=O)c3ccccc3)CC2)c(C#N)c2c1COC(C)(C)C2,0,-7,.,6,.,-1,-9,1
O=C(Cc1ccc(Cl)cc1)Nc1ccccc1C(=O)N1CCCCC1,-5,7,i,-6,20,-5,-2,-2
COc1ccc(-n2ncc3c(N(C)C4CCCCC4)ncnc32)cc1,0,19,i,-70,-30,0,-5,-3
Cc1cc(C)cc(OCCNC(=O)C2CCN(S(=O)(=O)c3ccccc3)CC2)c1,-3,-10,i,-14,-2,-5,3,4
Cc1ccc2nc3n(c2c1)CCCN3,.,-4,i,-23,3,5,2,.
Cc1ccc(N(CC(=O)N=Nc2c(O)[nH]c3ccccc23)S(C)(=O)=O)c(C)c1,2,-4,i,.,13,1,-1,-4
Cc1cc(C)cc(OCC(O)CN2CCN(C(=O)c3ccco3)CC2)c1 (stereo not given),-11,-19,i,-8,9,10,5,-11
CCOC(=O)Nc1ccc2c(c1)N(C(=O)CCN(C)C)c1ccccc1CC2,-11,11,i,5,16,-4,-3,-10
c1ccc2c(c1)Cn1nc(Cc3nc4c(s3)CCCC4)nc1-2,3,.,i,.,.,-2,4,4
COc1ccc(NC(=O)CN(C)C(=O)c2cccc(NS(=O)(=O)c3ccc(Br)cc3)c2)cc1,.,-4,i,.,9,-2,-6,.
O=C1NC2C3CC(c4ccccc43)C12 (stereo not given),.,.,.,-13,4,1,3,.
Cc1ccc(S(=O)(=O)N(C(=O)c2ccncc2)c2ccc(OC(=O)c3ccncc3)cc2)c(C)c1,4,-3,i,.,1,2,0,4
CCc1ccc(NC(=O)CN2CCN(c3ccc(OC)cc3)CC2)cc1,.,.,.,-19,15,2,-6,.

# Rewritten with two lines to a compound: entries from further up.
# Second line of a record: eIF4H FP inh, CSC inhib, Rce1 inhib, Yeast UUG start, HIV Env fusion, MT1-MMP act inh, MT1-MMP act inh RFP, PABP polyA inh
- CN1CCN(S(=O)(=O)c2cc(Cl)c(Cl)cc2Cl)CC1
  0, -7, i, -16, -10, -2, 2, 8
- Cc1ccc(N(CC(=O)N=Nc2c(O)[nH]c3ccccc23)S(C)(=O)=O)c(C)c1
  2, -4, i, ., 13, 1, -1, -4
- CCc1nc(N2CCN(C(=O)c3ccccc3)CC2)c(C#N)c2c1COC(C)(C)C2
  0, -7, ., 6, ., -1, -9, 1
- COc1ccc(-n2ncc3c(N(C)C4CCCCC4)ncnc32)cc1
  0, 19, i, -70, -30, 0, -5, -3

# The results go on:
SMILES,eIF4H FP inh,CSC inhib,Rce1 inhib,Yeast UUG start,HIV Env fusion,MT1-MMP act inh,MT1-MMP act inh RFP,PABP polyA inh
O=C(CC(c1ccccc1)c1ccccc1)Nc1ccc(Cl)cn1,-6,-9,i,-5,.,-1,-13,6
Cn1c(=O)c(N=O)c(N)n(Cc2ccccc2)c1=S,.,-21,i,-20,7,1,-4,.
O=[N+]([O-])c1ccc(C23CC4CC(CC(O)(C4)C2)C3)cc1,-1,13,i,.,.,.,.,7
O=C(c1ccc(-c2ccccc2)cc1)C1CCCN(C(=O)c2ccncc2)C1 (stereo not given),0,22,i,.,17,-3,-4,-1
CCc1cc(C(=O)N2CCCC(C(=O)c3cccc(OC(C)C)c3)C2)n(C)n1 (stereo not given),-4,4,i,-15,21,2,-3,-13
c1ccc2[nH]c3cc4ncnc4cc3nc2c1,?,-9,i,.,-89,-52,6,-1
Cc1ccc(-c2nnn(CC(=O)N(Cc3ccccc3F)C(C(=O)NC3CCCC3)c3ccncc3)n2)o1 (stereo not given),-4,-12,i,-4,-3,-4,2,3
CC(C)OP(=O)(c1ccc(N(C)C)cc1)C(O)c1c(Cl)cccc1Cl (stereo not given),1,-6,i,-4,-38,0,3,4
Cc1ccsc1/C=N/N=C/c1sccc1C,0,15,i,-36,-137,-1,-2,-1
COc1cccc(C2=CC(c3ccccc3)n3nnnc3N2)c1 (stereo not given),9,-16,i,-9,.,-44,-14,2
O=C(NCc1ccccc1)C1=C[C@@H](C2CC2)C[C@@H](OCCCCO)O1,7,-1,i,-16,4,5,-4,0
COC(=O)CC1C(=O)NCCN1C(=O)CSc1nc2ccccc2c(=O)n1CC(C)C (stereo not given),2,-12,i,.,-13,2,1,7
O=C(NCCc1ccccn1)C(F)(F)C(F)(F)C(F)(F)C(F)(F)C(F)(F)C(F)F,-3,-4,i,-2,-25,4,3,9
Cc1ccc(NC(=O)NC(=O)CSc2nnnn2C)c(C)c1,4,-5,i,13,-35,6,2,9
Cc1cccc(CNC(=O)c2ccccc2NC(=O)C2=CSCCO2)c1,0,8,i,-3,2,-3,0,-5
CC(C)c1nnc(NC(=O)CCC(=O)NC2CCCCC2)s1,-2,-11,i,.,.,.,.,10
O=S(=O)(c1cccs1)n1cnc2ccccc21,-4,.,i,-12,.,6,2,0
CC(=O)c1c(C)nn(CC(O)Cn2c3c(c4cc(C)ccc42)CCCC3=O)c1C (stereo not given),-15,-27,.,-5,-55,2,2,0
Nc1ccccc1C(=O)NCCN1CCNC1=O,-7,-10,i,.,0,-3,-1,-10
COc1ccc(CCNC(=O)CN2C(=O)NC(C)(c3ccc([N+](=O)[O-])cc3)C2=O)cc1 (stereo not given),-6,-12,.,.,7,1,-5,4
CC1CCCCN1CC(=O)NC(=O)NCc1ccccc1 (stereo not given),1,.,i,-4,17,7,6,2
O=C(O)c1cc(Cl)c2c(c1)OCO2,47,-8,i,.,13,-3,3,6
CN1CCN(NC(=O)/C=C/c2ccc(C(C)(C)C)cc2)CC1,-5,17,i,-5,11,0,3,0
Cc1ccc(C(=O)OCC(=O)N(CC(C)C)c2c(N)n(Cc3ccccc3)c(=O)[nH]c2=O)o1,.,8,i,1,-10,-1,4,.

# Sorted by the number under HIV Env fusion (ascending): some entries from above.
canonical_smiles	HIV Env fusion
Cc1ccc(S(=O)(=O)N(C(=O)c2ccncc2)c2ccc(OC(=O)c3ccncc3)cc2)c(C)c1	1
O=C1NC2C3CC(c4ccccc43)C12 (stereo not given)	4
O=C(O)c1cc(Cl)c2c(c1)OCO2	13
CC1CCCCN1CC(=O)NC(=O)NCc1ccccc1 (stereo not given)	17

# Next compounds follow:
SMILES,eIF4H FP inh,CSC inhib,Rce1 inhib,Yeast UUG start,HIV Env fusion,MT1-MMP act inh,MT1-MMP act inh RFP,PABP polyA inh
COc1ccc(C2(O)CCN(C(=O)Cc3cccnc3)CC2)cc1,0,-9,i,-10,-39,0,4,4
Cc1ccc(OCC(O)CN2CCN(CC(O)COc3ccc(C)cc3)CC2)cc1 (stereo not given),-10,13,i,-14,1,-7,-9,-2
Cc1ccc(NC2=C(Cl)C(=O)OC2OC(=O)c2ccccc2)c(C)c1 (stereo not given),1,1,i,.,-11,1,3,10
O=C(CN(c1ccccc1)S(=O)(=O)c1ccccc1)Nc1ccccc1C(=O)NCc1ccco1,14,8,i,.,23,-4,-5,4
N#Cc1cc(C(=O)c2ccccc2O)cn(-c2ccc(Cl)cc2)c1=O,-7,-3,i,-17,1,-26,-4,-2
COc1cc(/C=C2/SC(=S)N(CCC(=O)Nc3cccnc3)C2=O)cc(OC)c1OC,.,.,.,-16,-3,19,-4,.
CCCc1nc2c(=O)n(C)c(=O)[nH]c2n1C,53*,-6,i,.,.,1,5,59*
Cc1ccc(C(=O)C(C)N2C(=O)NC(C)(c3ccccc3)C2=O)cc1 (stereo not given),-13,.,i,.,9,2,0,-2
Nc1nc(NCCOCCO)nc(NCC2CCCO2)c1[N+](=O)[O-] (stereo not given),-11,-3,i,.,-6,2,5,3
Cc1cc(C)c2c(N=NN3CCCCC3)[nH]nc2n1,10,-1,i,.,11,-1,-2,4
CC1CN(C(=S)SCC(=O)c2ccccc2)CC(C)O1 (stereo not given),1,-21,i,.,1,4,-2,-4
CC1=CC(C)(C)Nc2ccc(OC(=O)C(Cc3ccccc3)N3C(=O)C4CCCCC4C3=O)cc21 (stereo not given),-7,.,i,-18,.,-3,18,-8

# Only Rce1 inhib, MT1-MMP act inh RFP and HIV Env fusion (7 entries from above):
Structure | Rce1 inhib | MT1-MMP act inh RFP | HIV Env fusion
CS(=O)(=O)N(CC(=O)N1CCOCC1)Cc1ccc(Cl)cc1 | i | 1 | .
CCOC(=O)N1CCN(C(=S)NC2CCCC2)CC1 | i | 2 | -14
O=C(NNCc1ccccc1)c1ccccn1 | . | -3 | -42
CCc1nc(N2CCN(C(=O)c3ccccc3)CC2)c(C#N)c2c1COC(C)(C)C2 | . | -9 | .
O=C(Cc1ccc(Cl)cc1)Nc1ccccc1C(=O)N1CCCCC1 | i | -2 | 20
COc1ccc(-n2ncc3c(N(C)C4CCCCC4)ncnc32)cc1 | i | -5 | -30
Cc1cc(C)cc(OCCNC(=O)C2CCN(S(=O)(=O)c3ccccc3)CC2)c1 | i | 3 | -2

# Continuation.
SMILES,eIF4H FP inh,CSC inhib,Rce1 inhib,Yeast UUG start,HIV Env fusion,MT1-MMP act inh,MT1-MMP act inh RFP,PABP polyA inh
NS(=O)(=O)c1ccc(CCNC(=O)c2ccc(Cl)cc2[N+](=O)[O-])cc1,-2,3,i,.,-100,-2,1,4
COc1ccc(CCNC(=O)C(=O)NCc2ccc(C(C)C)cc2)cc1OC,12,4,i,-15,-45,-4,-3,2
Cc1nc(SCC(=O)N2CCCc3ccccc32)c2oc3ccccc3c2n1,0,-8,i,-19,.,6,-8,6
O=C(NCCN1CCOCC1)/C(=C\c1ccccc1Cl)NC(=O)c1ccccc1,6,7,i,.,-4,3,0,2
